# LANA-nucl inh – inhibitors of KSHV LANA binding to nucleosomes. FITC-LANA1-23 / chicken nucleosome fluorescence polarization; stronger effect = lower value. z-score (concentration not given with the values). 0.3% of 51,000 active. AID 720717;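 active = both repeat wells score below -2 in polarization z-score versus plate sample wells, excluding overly bright wells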;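 note: 100 nL library stock added to about 30 µL; numbers are from one replicate; some results filed as inactive read as strong as hits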
#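 test system = FITC-LANA peptide and chicken nucleosomes | amount = 240 nM purified chicken nucleosomes (480 nM peptide binding sites), final | reagent = 50 nM FITC-LANA1-23 probe | medium = TEN-BT buffer, pH 7.5 | doses = single compound addition by pin transfer, 100 nL per well | timing = 10–45 min, room temperature | detection = fluorescence polarization | repeats = duplicate plates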
# BasE inh – BasE siderophore biosynthesis inhibition; purified BasE, fluorescence polarization binding displacement; 0.1% of 84,000 active; AID 485350; inhibition, % (test concentration not listed);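 active = both replicates above 25% with normal brightness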;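 note: 0% = negative plate control signal and 100% = positive plate control signal; stock transfer was 100 nL into about 30 µL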
# Active calls of the source: *; · = not tested or not shown.
# Second line of a record – LANA-nucl inh	BasE inh
> COCCn1c(C)cc(C(=O)COC(=O)c2cncc(Br)c2)c1C
    ·	1.6
> O=C1c2ccccc2C(=O)N1OCCOCCON1C(=O)c2ccccc2C1=O
    -1.1	0.9
> N#Cc1c(-n2ncnc2-c2ccc(Cl)cc2)sc2c1CCCCC2
    -0.25	-0.9
> CCN1C(=O)C(C2SC(=S)N(CC)C2=O)SC1=S (configuration not stated)
    0.49	1.2
> COc1ccc(NC(C)=O)cc1C
    ·	1.8
> Cc1ccccc1NS(=O)(=O)c1ccc(C2CNC(=O)C2)cc1 (configuration not stated)
    -0.84	4.0
> CCn1c(=O)c(C(=O)CNc2ccc(S(C)(=O)=O)cc2)c(N)n(Cc2ccccc2)c1=O
    ·	-6.3
> Cc1ccc(NC(=O)C2CCN(S(=O)(=O)c3cccs3)CC2)cc1C
    ·	0.3
> Cc1cc(=O)[nH]c2c(C)cc(S(=O)(=O)N3CCOCC3)cc12
    -0.18	1.7
> COC(=O)c1ccc(OCC(=O)c2cc(C)n(-c3cc(C)on3)c2C)cc1
    ·	0.3
> COC(=O)c1cc(C(C)(C)C)[nH]n1
    0.72	-3.7
> CN(CCO)c1ncnc2c1sc1nc3c(cc12)COC(C)(C)C3
    -0.82	-0.3
> COc1cc(CC(=O)OCC(=O)NC2CCCCC2C)cc(OC)c1OC (configuration not stated)
    ·	2.9
> Cc1cc(=O)oc2cc(OC(=O)c3cc(S(=O)(=O)N(C)C)ccc3N3CCCC3)ccc12
    ·	-0.1
> Cc1ncn2cc(-c3ccc(Cl)cc3Cl)[nH]c(=O)c12
    ·	0.3
> O=C(O)C1Cc2ccccc2CN1S(=O)(=O)c1ccccc1 (configuration not stated)
    ·	1.8
> O=C1c2ccccc2S(=O)(=O)N1CCSc1nncn1-c1ccccc1
    ·	1.2
> O=C(CSc1ccc(C(=O)O)cn1)Nc1ccc(OC(F)(F)F)cc1
    -0.36	-0.6
> Cc1cc2ncc(S(=O)(=O)C(C)(C)C)c(N)n2n1
    0.28	0.4
> CC(=O)Nc1ccc(S(=O)(=O)c2cc(O)ccc2O)cc1
    -0.23	-1.0
> COc1ccc(CCNc2nc3c(c(C(F)(F)F)n2)CCCCC3)cc1OC
    -1	0.9
> Cc1ccc(C)c(CSc2nnc(C)n3c2cc2occc23)c1
    1.8	-2.9
> CNC(=O)c1cccc(N)c1
    ·	-1.7
> Cc1ccc(C)c(S(=O)(=O)CCC(=O)O)c1
    0.96	-0.9
> O=S(=O)(c1ccccc1)N(Cc1ccccc1)Cc1ccccc1
    ·	1.6
> CCN1CCOC2(O)C=CC(=O)C=C12 (configuration not stated)
    -1.1	0.3
> COC(=O)C1=C(NNc2ccccc2)CSC1
    0.44	1.5
> CCc1ccc(CN2CCN(Cc3ccc4c(c3)OCO4)CC2)cc1
    ·	-0.4
> COc1ccccc1N1C(=O)CSC1=NC(=O)c1ccccc1
    ·	1.3
> CCN1CCCC1CNC(=O)c1c(-c2c(Cl)cccc2Cl)noc1C (configuration not stated)
    0.14	·

# Ordered by value in LANA-nucl inh (low to high): 6 from the list above.
molecule,LANA-nucl inh
Cc1ccccc1NS(=O)(=O)c1ccc(C2CNC(=O)C2)cc1 (configuration not stated),-0.84
O=C(CSc1ccc(C(=O)O)cn1)Nc1ccc(OC(F)(F)F)cc1,-0.36
Cc1cc(=O)[nH]c2c(C)cc(S(=O)(=O)N3CCOCC3)cc12,-0.18
Cc1cc2ncc(S(=O)(=O)C(C)(C)C)c(N)n2n1,0.28
Cc1ccc(C)c(S(=O)(=O)CCC(=O)O)c1,0.96
Cc1ccc(C)c(CSc2nnc(C)n3c2cc2occc23)c1,1.8

# New compounds follow
# Second line of a record – LANA-nucl inh	BasE inh
> Cc1c(C(=O)N(Cc2ccccc2)Cc2cccnc2)cnn1-c1ccc(F)cc1
    ·	1.3
> Nc1nnc(SCC(=O)Nc2nnc(C(F)(F)F)s2)s1
    -0.26	-1.2
> CN(C)C(=O)COC(=O)c1ccccc1Nc1ccc(SC(F)F)cc1
    ·	-2.0
> COc1ccc(CC(=O)OCc2nc3ccc(Cl)cc3n2CCO)cc1OC
    ·	-1.9
> NC(=O)CSc1ccc2nnc(-c3ccc(Cl)cc3)n2n1
    0.43	-0.7
> O=C(CNCCC1=CCCCC1)Nc1ccccc1N1CCCCC1
    0.43	-3.4
> Cc1nnc(SC(C(N)=O)C(N)=O)s1
    ·	0.8
> CN(C)C(=O)N1c2ccccc2Sc2ccccc21
    ·	-0.5
> Cc1oc2ccc(O)c(CN3CCC(C)CC3)c2c1C(=O)Nc1cccc(C(F)(F)F)c1
    0.031	-1.2
> Cc1cc(C)n(C(=O)c2ccc(S(=O)(=O)N3CCCCCC3)cc2)n1
    -0.52	0.9
> CSc1nsc(SCC(=O)NC2CCCCC2)n1
    0.78	0.5
> O=C1CS/C(=C\c2nc3ccccc3s2)N1
    ·	-3.1
> O=C(O)/C=C/c1c(Cl)nc2ccccn12
    ·	0.4
> O=c1c(O)c(-c2cccs2)[nH]c2cc(Cl)ccc12
    ·	2.2
> CCOC(=O)c1c(NC(=O)CN2CCCC2c2cccn2C)sc(C)c1C (configuration not stated)
    ·	1.0
> Cc1ccc(C(=O)C(C)Sc2nnc3ccccn23)cc1 (configuration not stated)
    ·	1.9
> O=C(O)c1ccccc1C(=O)N1CCN(c2ccc(F)cc2)CC1
    -0.53	·
> COc1cccc(NC(=S)N/N=C/c2ccc(O)cc2)c1
    ·	3.1
> Cc1ccnc2nc(C(=O)NC3CCCc4ccccc43)nn12 (configuration not stated)
    ·	-5.2
> CCN(CC(=O)Nc1ccc(NC(C)=O)cc1)C(=O)c1ccccc1SCc1c(C)noc1C
    ·	-0.2
> Cc1cc(C)cc(-n2ccnc(NCc3ccc4c(c3)OCO4)c2=O)c1
    -0.35	-17
> Cc1cc(NC(=O)CSc2ncccn2)no1
    -0.42	1.5
> CC(Oc1ccccc1)C(=O)OCc1nc2ccsc2c(=O)[nH]1 (configuration not stated)
    ·	4.8
> CCCn1c(SC(C)C(=O)c2ccc(Cl)cc2)n[nH]c1=O (configuration not stated)
    ·	0.5
> NC(=O)C1CCN(Cc2cc(=O)n3ccsc3n2)CC1
    ·	2.9
> O=C(NCCC(=O)N1CCN(C(=O)c2ccco2)CC1)c1ccccc1Cl
    ·	2.1
> CCN(CC)c1ncccc1C(=O)NCC1CCCO1 (configuration not stated)
    -0.4	1.3
> O=S(=O)(c1ccccc1)c1ncc(C(F)(F)F)cc1O
    -0.086	·
> CN(C)/C=C(\C#N)C(=O)NCc1ccc(F)cc1F
    0.032	0.0
> OC1(C(F)(F)F)CC(c2ccncc2)=NN1 (configuration not stated)
    -1.4	2.0

# Second line of a record – LANA-nucl inh	BasE inh
> O=C(C1CCCO1)N1CCN(C(=S)NC2CCCCC2)CC1 (configuration not stated)
    0.16	3.1
> Cc1cc2oc(=O)cc(Cn3ccsc3=N)c2cc1C(C)C
    ·	0.8
> COC(CN(C)S(=O)(=O)c1ccc(N2CCCCS2(=O)=O)cc1)OC
    0.007	2.8
> O=C(O)C1C2C=CC(C2)C1C(=O)NCCN1CCOCC1 (configuration not stated)
    0.37	2.1
> O=C(O)COc1cc(O)c2c(=O)c(-c3ccc4c(c3)OCCO4)coc2c1
    ·	-3.0
> S=C(Nc1ccccc1)N1CCOCC1
    -0.74	1.3
> Cn1c(NN)nc2ccccc2c1=O
    -0.038	2.5
> CCCCn1c(-c2cc3c(s2)CCC3)nc2cc(S(N)(=O)=O)ccc21
    ·	-0.4
> Cc1ccccc1OCCN1C(=O)NC(CC(C)C)C1=O (configuration not stated)
    ·	-2.8
> NC(=O)C1CCN(C(=O)c2cccc(Cl)c2)CC1
    ·	1.8
> Cc1ccc(C2=CSC3=C(C(=O)c4ccc(S(=O)(=O)N(C)C)cc4)CCN23)cc1
    ·	6.1
> O=C1CCC(=O)N1OCC(=O)N(c1ccccc1)c1ccccc1
    1.4	-0.5
> Cc1ccccc1Nc1nc(N)nc(CSc2nc3scc(-c4cccs4)c3c(=O)[nH]2)n1
    ·	-3.8
> CC(C)n1c(-c2ccncc2)n[nH]c1=S
    -0.14	1.8
> CCOC(=O)c1cc2c(ccn2C)n1CC(=O)N1CCCC(C)C1 (configuration not stated)
    -0.52	1.0
> Cc1[nH]c(=O)[nH]c(=O)c1NCCO
    0.25	-3.2
> N#CSC1CC(=O)N(c2ccc(F)cc2)C1=O (configuration not stated)
    0.062	1.5
> O=C(CSC1=NCCS1)Nc1cc(Cl)ccc1N1CCOCC1
    -1.4	-1.7
> O=C1NCCCCC1NS(=O)(=O)c1cccc(C(F)(F)F)c1 (configuration not stated)
    0.32	0.3
> COC(CNC(=S)c1ccc(NC(C)=O)cc1)OC
    ·	1.2
> CC(C)=CC(=O)Nc1cc(Cl)ccc1C
    -0.055	0.2
> CN(C)c1ccc(NC(=O)C2CC3CCCC(C2)C3=O)cc1 (configuration not stated)
    -1.2	-0.6
> Cn1c(=S)[nH]c2ccccc2c1=O
    ·	-0.1
> COc1ccc(S(=O)(=O)N(C)Cc2ccccc2)cc1OC
    0.44	-2.0
> CCOc1ccc2c3c(c(=O)oc2c1C)CCC3
    ·	-0.8
> Cc1nc(-c2ccc(C(=O)O)cc2)cs1
    2.3	-2.9
> CSc1cc(C(F)(F)F)c(C(=O)Nc2c(C)cccc2C)cn1
    ·	3.6
> CCc1nc2ccc(C(=O)NCCc3cnc[nH]3)cc2nc1CC
    -1.3	-1.1
> Cc1ccc2c(c1)c1c(n2C)C(C#N)CCC1 (configuration not stated)
    -0.56	2.2
> Cc1noc(C)c1COC(=O)c1cc2c3ccccc3n(C)c2s1
    ·	-0.3

# Second line of a record – LANA-nucl inh	BasE inh
> O=C1CC(NC2CCN(c3ncccn3)CC2)C(=O)N1c1ccc(F)cc1 (configuration not stated)
    0.039	0.9
> CN1C(=O)C(C(=O)Nc2ccccc2)C2CC1(C)Oc1ccccc12 (configuration not stated)
    -0.52	0.4
> CCc1cc2cc3c(cc2nc1SCC(=O)N1CCCCC1)OCO3
    0.42	4.1
> Cc1cc(C2=Nn3cc(-c4ccccc4)nc3SC2)c(C)n1CC1CCCO1 (configuration not stated)
    ·	1.8
> Cc1sc2ncnc(SCC(N)=O)c2c1C
    0.73	-5.0
> O=C(Nc1cccc(F)c1)NC1(C(=O)NCC2CCCO2)CCCCC1 (configuration not stated)
    0.33	-2.2
> FC(F)(F)c1cccc(CSc2ncnc3c2oc2ccccc23)c1
    0.091	-1.6
> Cc1no[n+]([O-])c1COc1ccccc1/C=C1\NC(=S)NC1=O
    ·	0.7
> O=C(O)CCc1nc2cc(Cl)ccc2oc1=O
    -1.5	1.9
> O=C(c1cn(-c2ccccc2)nc1-c1cccnc1)N1CCCCC1
    0.72	1.3
> COC(=O)c1ccc(COC(=O)Cc2coc3cc4c(cc23)CCC4)o1
    ·	-1.2
> CCOc1ccc(NC(=O)C2CC(=O)N(CCCN3CC(C(=O)Nc4ccc(OCC)cc4)CC3=O)C2)cc1 (configuration not stated)
    0.01	-0.1
> COc1ccc(C(=O)COC(=O)Cn2c(C)csc2=O)c(OC)c1
    ·	2.0
> S=C(NCCN1CCOCC1)NCc1ccco1
    -0.52	2.0
> Cc1cc2n(n1)CCCN2CC(=O)NCCc1ccc(S(N)(=O)=O)cc1
    -0.71	-0.3
> CCOc1ccc(Nc2nc(C3(C)CC4(CC(C)(C)OC4=O)C(=O)O3)cs2)cc1 (configuration not stated)
    ·	1.9
> CN(Cc1ccccc1)C(=O)Cn1cc(Br)ccc1=O
    ·	1.0
> Cc1ccc(S(=O)(=O)N2C3C=CC(C3)C2C(=O)O)cc1 (configuration not stated)
    ·	-1.4
> CC(=Nc1ccccc1)C1=C(O)CSC1=O
    ·	1.4
> CCn1c(C(C)C)n[nH]c1=S
    1.1	-0.8
> CC1=C(C(=O)Nc2ccc(C)cc2)C2(CCCCCC2)OC1=O
    -1	-0.1
> CC(=O)Nc1ccc(C2=NNC(=NC(C)C)SC2)cc1
    ·	-6.1
> O=C(Cn1cnc2ccccc2c1=O)Nc1ccc(S(=O)(=O)Nc2nccs2)cc1
    0.079	-2.7
> Cc1nn(-c2ccc(F)cc2)c(-n2cccc2)c1C(=O)N(C)Cc1ccccc1
    -0.068	-0.9
> CCNC(=O)c1ccc2c(c1)sc1nc(-c3ccc(CC)cc3)cn12
    0.3	1.3
> Fc1ccc(-c2noc(COc3ncnc4ccccc34)n2)cc1
    ·	0.1
> CCN(CC)CC(O)COc1ccc(OCc2ccccc2)cc1 (configuration not stated)
    0.38	-1.2
> COc1cccc(C(=O)NCCN2CCOCC2)c1
    ·	1.0
> N#Cc1ccccc1S(=O)(=O)NCC(=O)NC1CCCc2ccccc21 (configuration not stated)
    ·	1.7
> CCc1oc(C(=O)O)cc1CN
    -0.21	0.1

# Single values from the list.
# CC(=O)Nc1ccc(C2=NNC(=NC(C)C)SC2)cc1 in BasE inh shows -6.1
# FC(F)(F)c1cccc(CSc2ncnc3c2oc2ccccc23)c1 in LANA-nucl inh shows 0.091

# Other records:
# Second line of a record – LANA-nucl inh	BasE inh
> CC1(C)Cc2c(sc3nc(N4N=N4)nc(NCCO)c23)CO1
    2.5	-3.3
> C#CCN=Cc1c(O)n(CC)c(=S)n(CC)c1=O
    ·	-0.8
> CC(C)Sc1nc2ccccc2n1CC(=O)N1c2ccccc2CC1C (configuration not stated)
    ·	2.4
> FC(F)(F)c1cccc(OCCCn2cncn2)c1
    0.52	-0.4
> Cc1ccccc1NC1SC(=O)N(CCC(=O)O)C1=O (configuration not stated)
    -1.6	0.7
> Cc1ccc(C)c(-n2c(SCc3nc(-c4cccs4)oc3C)nnc2-c2cc3sccc3n2C)c1
    -1.7	0.0
> COc1cc2c(cc1OC)C(c1ccc(C)s1)CC(=O)N2 (configuration not stated)
    -0.056	1.1

# Assay outcomes (PubChem)

# A portion of the library, so the mix of outcomes need not match the whole.
